# Screening data from PubChem BioAssay.
# PKD1 kinase inh: blocks activity of human protein kinase D1 | Q15139 | PKD1 kinase fluorescence polarization assay | inhibition, %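 (about 10 µM by stock and volumes)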 | 200,000 compounds, 0.056% hits | AID 797;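 active means inhibition of 50% or more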;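 further: controls were vehicle for no effect and a reference inhibitor for full effect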
# RGS16-Gao: modulates binding between human RGS16 and Galphao. O15492+P09471. bead-based flow cytometry RGS16-Galphao binding, fluorescence; actives lie on both sides. binding response (% of control), % at 10 µM. 220,000 compounds, 0.38% hits. AID 1441;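 active means below 25% or above 175%, edge rows of some plates excepted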;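 further: Galphao activated by GDP with aluminum fluoride before binding; 100% = wells without compound and 0% = beads without RGS; some results beyond the cut were filed as inactive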
# Target sequence (O15492 whole entry, looked up): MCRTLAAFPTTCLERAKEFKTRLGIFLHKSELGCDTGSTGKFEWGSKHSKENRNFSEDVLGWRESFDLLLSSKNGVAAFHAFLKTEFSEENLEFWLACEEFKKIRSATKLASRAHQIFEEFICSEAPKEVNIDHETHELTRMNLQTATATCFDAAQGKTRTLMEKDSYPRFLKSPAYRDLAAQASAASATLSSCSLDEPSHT
# Target sequence (P09471 whole entry, looked up): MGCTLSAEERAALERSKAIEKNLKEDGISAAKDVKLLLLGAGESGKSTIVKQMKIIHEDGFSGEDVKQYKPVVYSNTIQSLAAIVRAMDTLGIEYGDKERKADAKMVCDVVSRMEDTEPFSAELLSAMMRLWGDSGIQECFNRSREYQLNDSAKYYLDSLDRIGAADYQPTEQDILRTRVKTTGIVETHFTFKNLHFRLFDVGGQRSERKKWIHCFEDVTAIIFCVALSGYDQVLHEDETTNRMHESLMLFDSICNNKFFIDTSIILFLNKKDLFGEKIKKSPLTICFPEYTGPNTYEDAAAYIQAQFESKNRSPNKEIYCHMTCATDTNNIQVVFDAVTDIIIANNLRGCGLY
# GALR2 agonist: agonists of human galanin receptor 2 (GALR2) | 140,000 compounds, 0.48% hits | activation, %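 (tested at 5 µM)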 | GALR2-expressing cells, agonist activation read-out | O43603 | AID 803;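 active means above mean plus 3 SD of all compounds, about 5% in these data, not always enough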;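 further: 0% = vehicle buffer wells and 100% = reference agonist at full effect; tested in CHO reporter cells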
# Target sequence (O43603 whole entry, looked up): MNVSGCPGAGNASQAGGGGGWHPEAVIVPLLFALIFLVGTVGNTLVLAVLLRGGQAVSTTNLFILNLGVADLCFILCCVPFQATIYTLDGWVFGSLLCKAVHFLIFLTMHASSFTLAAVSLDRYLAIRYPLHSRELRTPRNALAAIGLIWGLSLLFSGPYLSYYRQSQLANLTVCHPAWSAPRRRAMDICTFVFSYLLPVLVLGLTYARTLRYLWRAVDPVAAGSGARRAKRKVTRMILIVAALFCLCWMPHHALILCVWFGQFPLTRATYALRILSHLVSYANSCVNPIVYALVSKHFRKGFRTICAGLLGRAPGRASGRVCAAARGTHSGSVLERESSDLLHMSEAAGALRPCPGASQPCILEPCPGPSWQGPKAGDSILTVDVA
# Insulin prom inh: TRM-6 insulin promoter activity inhibition | TRM-6 cells (human fetal islet line), insulin promoter-eGFP reporter, imaging; reporter expression induced with tamoxifen | inhibition, % at 2 µM | 130,000 compounds, 0.9% hits;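 active means inhibition above the mean plus 3 SD, with well images judged a real hit on visual review, cut at about 60% in these data, passing the limit was not always enough; inconclusive means inhibition over the cutoff but images rejected on review; inactive means inhibition not above the cutoff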
# HSV replic up: increases HSV replication in cells; HSV replication augmentation in cells, fold increase; AID 1956; 220,000 compounds, 0.005% hits; maximum fold increase;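 active means peak rise of 1.5-fold or more in the series; inconclusive means self-fluorescent or not available for retest; tested in PC3 cells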;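 further: first round at 10 µM; read as green reporter fluorescence; hits show the peak of a series up to 25 µM; 1 = signal of infected wells without compound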
# Insulin prom inh cell count: further read-out of Insulin prom inh, marked with its call; normalized cell count, %; measured here: cell count, toxicity; reference of the scale not given here;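 cells exposed to compound for 48 h; stained nuclei by imaging scaled within each plate; lower means fewer cells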
# HSV replic up primary fold: also measured in HSV replic up; calls as there; fold increase; compound at 10 µM; measured here: primary screen fold increase 10 uM; tested in PC3 cells;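 GFP signal in the first replicate; 1 = infected wells without compound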
# Active calls of the source: *; i = inactive; ? = inconclusive; / = not tested or not shown.
SMILES,PKD1 kinase inh,RGS16-Gao,GALR2 agonist,Insulin prom inh,Insulin prom inh cell count,HSV replic up,HSV replic up primary fold
CCN(CC)c1ccc2cc(C=O)c(=O)oc2c1,1,110,2.4,/,/,i,0.97
Nc1ncc(-c2ccc([N+](=O)[O-])cc2)cn1,1,99,0.1,/,/,i,1.1
O=C(NCCN1CCCC1)c1cc(-c2ccncc2)nc2ccc(S(=O)(=O)N3CCOCC3)cc12,9,121,-0.1,/,/,i,0.89
Cc1ccc(-n2cc(CNC(C)c3cnn(C)c3)c(-c3ccc(F)cc3)n2)cc1 (stereo not drawn),-7,101,/,-35,210,i,0.72
CCOC(=O)CN1N=C(/C=C/c2ccc(C)cc2)CCC1=O,6,99,-1.0,-10,110,i,0.9
Cc1cccc(/C=N/NC(=O)C(C)Nc2cccc3ccccc23)n1 (stereo not drawn),1,98,-1.8,20,37,i,0.89
COC(=O)Cc1ccc(NC(=S)NC2CC2)cc1,/,100,/,/,/,i,1.1
CC1SC(c2ccc(Cl)cc2Cl)NC1=O (stereo not drawn),-14,101,-1.5,-340,54,i,0.96
CN(CC(=O)O/N=C(\N)c1ccc([N+](=O)[O-])cc1)S(=O)(=O)c1ccccc1,2,174,-1.0,-17,113,i,0.98
Cn1c(=O)c2nnn(/N=C(\c3ccccc3)C3CC3)c2n(C)c1=O,-4,102,-2.6,-3,98,i,0.81
CCc1ccc(N2C(=O)/C(=C/c3cccs3)N(CC(=O)OC)C2=S)cc1,-2,95,2.7,-22,114,i,1
C/C(CCC(C)C)=N\Nc1ccc(S(N)(=O)=O)cc1[N+](=O)[O-],5,90,/,/,/,i,0.87
CCOC(=O)Cc1csc(NC(=O)c2ccc(Cl)nc2)n1,-6,100,1.6,-19,78,i,0.97
Cc1noc(/C=C/c2ccc(-c3ccccc3Cl)o2)c1[N+](=O)[O-],1,111,-1.7,/,/,?,/
O=C(O)c1cccc(NS(=O)(=O)/C=C/c2ccccc2)c1,-3,107,0.2,-23,99,i,0.72
CSc1ccccc1NC(=O)COc1ccc(Cl)cc1,10,107,-1.4,28,120,i,1
CCCCC(=O)Nc1sc2c(c1C(=O)OCC)CCC(C=O)=C2Cl,2,100,-1.6,/,/,i,0.99
COC(=O)CN1C(=O)C(O)(CC(=O)c2cccc(Br)c2)c2ccccc21 (stereo not drawn),0,103,-1.5,/,/,i,0.98
Cc1c(Br)cc(C(=O)OC2CCN(C)CC2)c(C)c1C,3,100,-0.2,3,95,i,0.7
CN(C)Cc1nc2ccccc2c(=O)n1CC#N,-5,106,/,17,91,i,0.95
O=C(COc1ccccc1)OCc1csc(Nc2ccccc2)n1,-6,63,-0.7,36,94,i,0.95
CC(=C/C(=O)O)/C=C/c1ccco1,-13,102,-0.9,6,114,i,0.88
COc1ccccc1NC(=O)c1ccccc1C(=O)O,-2,104,/,/,/,i,1
O=C(O)CCC(=O)NNC(=O)CCC(=O)NCc1ccccc1,-5,113,-2.9,0,78,i,0.96
COC(=O)c1ccccc1NC(=O)Cn1c(SC)c(F)cnc1=O,-3,95,0.0,45,92,i,0.98
O=C(c1ccc(F)cc1)C1CCN(Cc2cn[nH]c2-c2ccccc2)CC1,/,106,/,/,/,i,0.96
CC(Nc1ccccc1)C(=O)Nc1ccc(F)cc1 (stereo not drawn),1,117,-2.4,-10,117,i,0.89
C=CCn1c(SCC(=O)NC2CCCC2)nc2scc(-c3ccco3)c2c1=O,7,100,-0.8,8,179,i,1.1
COc1ccc(Oc2nc3c(c(=O)n(C)c(=O)n3C)n2Cc2ccccc2)cc1,-3,102,0.6,-24,136,i,0.81
COc1cccc(-c2nc(CS(=O)(=O)CC(=O)N3CCN(c4ccccn4)CC3)c(C)o2)c1,-21,96,-0.6,/,/,i,1
Cc1noc(/C=C/N(C)C)c1S(=O)(=O)N1CCc2ccccc21,-1,102,0.2,/,/,i,1
CCN(Cc1ccccc1)C(=O)CS(=O)(=O)c1ccccc1,-3,101,/,/,/,i,1
CCCCC1(C)Cc2ccccc2C(=S)N1 (stereo not drawn),7,84,-3.2,/,/,i,0.87
COc1ccc(C(CC(=O)N2CCCC(C)C2)c2c(OC)cc(OC)c3ccc(=O)oc23)cc1 (stereo not drawn),/,98,/,/,/,i,0.94
Cn1c(SCc2cccnc2)nc2c(c1=O)SCC2,-5,92,/,/,/,i,0.98
Cc1nnc(NC(=O)/C=C/c2ccco2)s1,-13,98,0.1,-10,105,i,1.3

# Of the compounds above, 4 have a furan ring, fused or not.
SMILES,PKD1 kinase inh,RGS16-Gao,GALR2 agonist,Insulin prom inh,Insulin prom inh cell count,HSV replic up,HSV replic up primary fold
Cc1noc(/C=C/c2ccc(-c3ccccc3Cl)o2)c1[N+](=O)[O-],1,111,-1.7,/,/,?,/
CC(=C/C(=O)O)/C=C/c1ccco1,-13,102,-0.9,6,114,i,0.88
C=CCn1c(SCC(=O)NC2CCCC2)nc2scc(-c3ccco3)c2c1=O,7,100,-0.8,8,179,i,1.1
Cc1nnc(NC(=O)/C=C/c2ccco2)s1,-13,98,0.1,-10,105,i,1.3

# The listing picks up; the 3 compounds before the break are reprinted first.
SMILES,PKD1 kinase inh,RGS16-Gao,GALR2 agonist,Insulin prom inh,Insulin prom inh cell count,HSV replic up,HSV replic up primary fold
COc1ccc(C(CC(=O)N2CCCC(C)C2)c2c(OC)cc(OC)c3ccc(=O)oc23)cc1 (stereo not drawn),/,98,/,/,/,i,0.94
Cn1c(SCc2cccnc2)nc2c(c1=O)SCC2,-5,92,/,/,/,i,0.98
Cc1nnc(NC(=O)/C=C/c2ccco2)s1,-13,98,0.1,-10,105,i,1.3
CCC(=O)Nc1cc(ON=C(C)C)cc([N+](=O)[O-])c1,0,39,-1.4,-50,118,i,0.99
COc1ccc(CN2CCN(S(=O)(=O)c3ccc(NC(C)=O)cc3)CC2)c(OC)c1OC,-4,104,/,-11,58,i,0.98
Clc1ccc(-n2cnnn2)cc1,-7,102,-0.8,-67,54,i,0.71
COc1ccc(S(=O)(=O)N2CCCC2C(=O)Nc2ccc(O)cc2)cc1 (stereo not drawn),-4,103,-0.8,-71,67,i,0.84
CCOc1ccc(C(=O)NC2CCN(S(C)(=O)=O)CC2)cc1,6,81,0.0,/,/,i,0.8
Cc1nc(NC(=O)COC(=O)c2cc3c(s2)CCC(C)C3)c(Cl)cc1Cl (stereo not drawn),3,107,-0.4,7,111,i,1
O=C(CSc1nnc([C@@H]2CCCN2)o1)c1ccc(Cl)cc1,-7,97,-0.4,8,127,i,0.93
CC1CCCN(C(=O)Nc2cccc(NC(=O)N3CCCC(C)C3C)c2)C1C (stereo not drawn),-3,146,-2.3,6,141,i,1.1
Cc1ccc(Cn2c(=N)n(CC(=O)c3ccccc3)c3ccccc32)cc1,-3,111,/,/,/,i,0.91
COC(=O)c1cc(NC(=O)c2ccc(Cn3cc(Cl)cn3)o2)cc(C(=O)OC)c1,-9,96,-4.3,93*,52*,/,/
COc1ccccc1N(C(=O)c1snc(C(N)=O)c1N)C(C(=O)NCCC(C)C)c1ccco1 (stereo not drawn),-11,107,-1.8,0,115,i,0.96
COc1ccccc1-c1cc(C(=O)N/N=C/c2ccc(C)s2)c2ccccc2n1,-2,98,-0.4,-35,78,/,/
O=C1CNC(=S)N1Cc1ccccc1,-1,94,/,-12,117,i,1.2
O=C1CC(c2ccc3c(c2)OCO3)c2cc3c(cc2N1)OCO3 (stereo not drawn),-4,100,1.2,-24,141,i,0.97
C=CCn1c(-c2cc3cccc(OC)c3o2)n[nH]c1=S,-5,105,/,-36,21,i,1
Cc1ccccc1N1CCN(CCCN2C(=O)CC(=C(c3ccccc3)c3ccccc3)C2=O)CC1,2,101,-4.5,0,91,i,0.83
Cc1[nH]ccc(=O)c1OCc1ccc(Cl)cc1,1,100,-1.2,-29,94,i,1
O=C(CCc1nnc(C2CCCCC2)o1)N1CCN(c2ccccc2F)CC1,-1,101,/,/,/,i,1
Cc1cccc(C)c1NC(=O)C(=O)c1cn(C)c2ccccc12,0,99,/,/,/,i,0.94
O=c1cc(CN2CCc3ccccc32)c2ccc(O)cc2o1,0,99,/,62,86,i,0.98
COc1ccc(-c2cc3c(=O)n(CC(=O)NC4CCN(Cc5ccccc5)CC4)ncn3n2)cc1,-10,100,0.3,37,75,i,0.96
CC(NC(=O)c1ccc(F)cc1)c1ccccc1 (stereo not drawn),-5,112,-3.2,43,121,i,1.1
CC(C)(C)c1ccc(S(=O)(=O)N2CCC(c3nc4ccc(Cl)cc4[nH]3)CC2)cc1,1,215,-1.8,-174,97,i,1
O=C1C=CC(=O)N1c1ccc(OC(F)F)cc1,1,94,-0.1,i,1,i,0.64
Cc1[nH]c2ccccc2c1/C=C/C(=O)c1ccccc1,4,100,-0.6,-58,104,i,1.1
CCCn1c(=S)[nH]c2cc(C(=O)N3CCN(c4ccccc4OC)CC3)ccc2c1=O,4,/,-1.1,7,117,i,0.89
O=C(CC1C(=O)N(c2ccccc2)C(=O)N1Cc1ccco1)Nc1ccccc1 (stereo not drawn),-1,22,/,/,/,i,1.1
O=c1oc2cc(OCc3nn[nH]n3)ccc2c2c1CCCC2,4,100,-0.1,/,/,i,0.91
CC1(C)N=C(c2cccc(F)c2)C(=O)N1,1,96,-0.8,/,/,i,0.89
CCC(CO)NC(=O)c1cc2c(s1)CCC2 (stereo not drawn),0,104,-2.8,-20,101,i,0.96
Cn1c(=O)c2[nH]c(NCC3CCCO3)nc2n(-c2ccccc2)c1=O (stereo not drawn),-4,62,-2.2,-152,36,i,1
O=C(Nc1nc2c(Br)cc(Br)cc2c(=O)s1)C1CCC1,/,103,/,/,/,i,1.1
COC(=O)C1=C(C(=O)OC)C(c2cc(Br)ccc2O)c2sc(=O)[nH]c2S1 (stereo not drawn),-4,93,-0.8,3,85,i,1.1
CCOC(=O)c1sc(NC(=O)CCCn2nc([N+](=O)[O-])cc2C)c(C(=O)OCC)c1C,-8,104,-1.6,0,19,i,1.1
O=c1[nH]c(=O)n(Cc2ccccc2)c2c1CCC2,-6,91,-1.5,/,/,i,0.89
COc1ccc(-c2cc(C(=O)Nc3cc(C)on3)no2)cc1,8,100,/,/,/,i,0.84
C=CCNC(=O)/C(C#N)=C/c1c(C)nn(-c2ccccc2)c1Cl,-6,113,-0.2,52,48,i,0.66
c1csc(C(c2nnnn2C2CCCC2)N2CCCC3(CCCCC3)C2)c1 (stereo not drawn),-9,100,-2.7,71,117,i,1.1
CCCNC(=O)C1CCN(c2cc(-c3ccccc3)nc3ncnn23)CC1,-3,105,/,24,160,i,0.86
CC1(C)Oc2ccccc2OC1(O)c1ccc2ccccc2n1 (stereo not drawn),-3,104,-2.4,/,/,i,1.1
CCn1cc(/C=C/C(=O)NCc2c(C)nn(C)c2C)cn1,5,110,0.0,9,167,i,0.85
O=C(NC(=S)Nc1cccc2ncccc12)c1cccs1,4,102,/,-42,100,i,1.2
CNC(=S)N/N=C/c1ccc(C(C)C)cc1,-11,/,-2.6,19,109,i,0.97
O=C(Cc1cccs1)Nc1nnc(C2CC2)s1,0,98,/,/,/,i,0.94
Cc1ccc(-n2cc(-c3ccccc3)[nH]c2=O)cc1F,-8,90,-0.5,0,101,i,0.92
CC12CN3CC(C)(CN(C1)C3c1ccccc1Cl)C2O (stereo not drawn),-16,99,-0.9,5,75,i,1
COc1ccc(-c2cn3cccnc3n2)cc1NC(=O)c1cccs1,-3,100,-1.6,/,/,i,0.99
Cc1onc(-c2ccccc2Cl)c1C(=O)N/N=C(\N)COc1ccc(Cl)cc1,-1,106,-4.3,19,108,/,/

# Compounds listed so far with a cyano group:
SMILES,PKD1 kinase inh,RGS16-Gao,GALR2 agonist,Insulin prom inh,Insulin prom inh cell count,HSV replic up,HSV replic up primary fold
CN(C)Cc1nc2ccccc2c(=O)n1CC#N,-5,106,/,17,91,i,0.95
C=CCNC(=O)/C(C#N)=C/c1c(C)nn(-c2ccccc2)c1Cl,-6,113,-0.2,52,48,i,0.66

# Further results.
SMILES,PKD1 kinase inh,RGS16-Gao,GALR2 agonist,Insulin prom inh,Insulin prom inh cell count,HSV replic up,HSV replic up primary fold
CCc1ccc2oc(C(=O)NCc3ccncc3)c(C)c2c1,-3,115,-1.2,-230,61,i,0.84
Cc1ccnc(Nc2nc3ccccc3s2)n1,-3,110,/,/,/,i,0.79
COC(=O)c1ccc(NC(=O)c2ccccc2-c2ccccc2C(=O)O)cc1,-8,99,/,-18,109,i,1
Cc1onc(-c2ccccc2Cl)c1C(=O)OCC(=O)Nc1cccc(S(=O)(=O)N(C)C)c1,-3,103,/,/,/,i,0.99
